PME-1 primary – PME-1 (human) inhibition | recombinant PME-1, FP-Rh probe fluorescence polarization | inhibition, % at 5.9 µM | 320,000 tested, 0.53% active;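 active = inhibition above the campaign mean of all compounds plus 3 SD, cut at about 26% in these data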;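 note: competitive labeling of PME-1 active site by serine hydrolase directed probe; 0% = PME-1 with DMSO and 100% = wells lacking PME-1 enzyme; inhibitors block probe labeling so polarization falls and inhibition rises; many of its hits are not listed in these tables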
pPAFAH inh – pPAFAH (human) enzyme inhibition | 330,000 tested, 1.5% active | Q13093 | recombinant pPAFAH, FP-rhodamine probe fluorescence polarization | AID 463082 | inhibition, % at 3.39 µM;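 active = inhibition above the mean inhibition across the screen plus 3 SD, cut at about 25% in these data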;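 note: inhibitors block binding of the rhodamine activity-based probe so polarization drops; 0% = enzyme with DMSO and 100% = wells lacking pPAFAH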
LYPLA1 counter – LYPLA1 (human) inhibition in PME1 counter-screen; 320,000 tested, 0.16% active; recombinant LYPLA1, FP-Rh probe fluorescence polarization; inhibition, % at 5.9 µM;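 active = inhibition above the mean of all tested compounds plus 3 SD, set per campaign, cut at about 14% in these data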;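 note: inhibitors block serine hydrolase probe labeling of LYPLA1 so polarization falls; 0% = enzyme with DMSO and 100% = wells lacking LYPLA1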
Target sequence (O75608 whole entry, looked up): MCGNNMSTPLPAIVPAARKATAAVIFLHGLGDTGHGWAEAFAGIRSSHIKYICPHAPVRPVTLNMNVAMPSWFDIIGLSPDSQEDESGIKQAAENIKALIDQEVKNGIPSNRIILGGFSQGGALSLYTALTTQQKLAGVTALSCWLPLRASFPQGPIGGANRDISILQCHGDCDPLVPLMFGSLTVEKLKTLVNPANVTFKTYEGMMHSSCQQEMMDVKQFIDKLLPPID
PAFAH1B3 FP inh – inhibitors of human PAFAH1B3 | 340,000 tested, 0.28% active | recombinant PAFAH1B3, FP-rhodamine probe, fluorescence polarization | AID 492972 | inhibition, % at 3.39 µM | Q15102;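 active = inhibition above the screen-wide average of all tested compounds plus 3 SD, cut at about 25% in these data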;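 note: 0% = enzyme with DMSO only and 100% = wells lacking PAFAH1B3 protein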
Target sequence (Q15102 whole entry, looked up): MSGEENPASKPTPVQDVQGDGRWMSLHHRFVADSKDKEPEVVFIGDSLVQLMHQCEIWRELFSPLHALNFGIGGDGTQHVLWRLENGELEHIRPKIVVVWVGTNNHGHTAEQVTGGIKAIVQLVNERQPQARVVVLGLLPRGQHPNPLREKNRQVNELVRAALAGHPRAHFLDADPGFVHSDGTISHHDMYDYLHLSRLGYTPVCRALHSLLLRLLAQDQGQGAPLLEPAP
Fam108B inh – Fam108B inhibition, counter-screen for RBBP9 inhibitors | recombinant Fam108B, FP-Rh probe fluorescence polarization | inhibition, % at 9.51 µM | 300,000 tested, 0.33% active;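 active = inhibition above the screen mean inhibition plus 3 SD, computed separately per campaign, cut at about 18% in these data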;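 note: inhibitors lower polarization as less probe binds the enzyme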
GSTO1 counter – GSTO1 inhibition, counter-screen for RBBP9 inhibitors; P78417; recombinant GSTO1, activity-based probe fluorescence polarization; 300,000 tested, 1.1% active; inhibition, % at 5.96 µM; AID 1974;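 active = inhibition above the campaign mean inhibition plus 3 SD, cut at about 35% in these data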;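 note: 0% = GSTO1-1 with DMSO and 100% = wells lacking GSTO1-1 enzyme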
Target sequence (P78417 whole entry, looked up): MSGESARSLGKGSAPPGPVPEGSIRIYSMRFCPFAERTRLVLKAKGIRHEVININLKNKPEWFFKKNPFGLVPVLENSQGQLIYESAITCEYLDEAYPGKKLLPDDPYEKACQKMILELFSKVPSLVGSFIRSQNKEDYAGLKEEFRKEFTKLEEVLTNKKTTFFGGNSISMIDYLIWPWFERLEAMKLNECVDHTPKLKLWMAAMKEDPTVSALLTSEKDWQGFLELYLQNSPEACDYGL
PAD4 inh – inhibitors of human PAD4 | Q9UM07 | recombinant PAD4, RCA probe fluorescence polarization | inhibition, % at 6.36 µM | 330,000 tested, 0.41% active | AID 485272;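 active = percent inhibition above a cutoff equal to the mean of all tested compounds plus 3 SD, cut at about 15% in these data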;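 note: 0% = PAD4 with RCA probe and DMSO and 100% = probe without PAD4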
PAFAH2 inh – PAFAH2 (human) inhibition. Q99487. recombinant PAFAH2, FP-rhodamine activity probe, fluorescence polarization. inhibition, % at 3.39 µM. 340,000 tested, 0.99% active;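 active = inhibition above the mean over all tested compounds plus 3 SD, cut at about 30% in these data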;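 note: inhibitors block probe labeling of enzyme so polarization drops; 0% = enzyme with DMSO and 100% = wells lacking PAFAH2 protein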
* marks the source's active call; other numbers are inactive results; . = not tested or not shown.

Second line of a record: GSTO1 counter	Fam108B inh	PAFAH2 inh	PAFAH1B3 FP inh	PAD4 inh	LYPLA1 counter	pPAFAH inh	PME-1 primary
- Cc1ccc(S(=O)(=O)/N=C(/NC(=S)Nc2cccc(C)c2)c2ccccc2)cc1
  8	4	8	-1	1	-9	1	0
- O=C(c1cccs1)N1CCN(c2ncccn2)CC1
  3	2	10	-2	2	4	2	3
- O=C(O)c1ccc(NS(=O)(=O)c2ccc(Cl)cc2)cc1
  1	1	7	0	-1	1	2	-5
- O=C(O)c1cc(-c2ccc(Cl)cc2)n(-c2ccc(Cl)cc2)n1
  -1	2	-5	14	-2	-2	-1	-4
- Cc1ccc(NS(=O)(=O)c2cc(C(=O)N3CCc4ccccc4C3)ccc2Cl)cc1
  3	-1	6	13	4	-1	8	13
- O=C(O)CC(NC(=O)C1c2ccccc2Oc2ccccc21)c1ccc(OC2CCCC2)cc1 (stereo not drawn)
  -2	-1	11	7	0	-3	4	-4
- CNC(=O)c1cnn(-c2nc(-c3ccc(OC)cc3)cs2)c1C(F)(F)F
  -4	0	4	-5	-2	3	10	7
- CCOc1ccc(C(CC(=O)O)NC(=O)C23CC4CC(CC(C4)C2)C3)cc1 (stereo not drawn)
  7	0	2	2	-2	-2	1	0
- O=C(O)/C=C/C(=O)Nc1ccc(SC(F)(F)C(F)(F)C(F)(F)F)cc1
  -17	-3	6	7	2	-8	2	-6
- O=C1CC(SCc2nc3ccccc3[nH]2)C(=O)N1c1ccc(Cl)cc1 (stereo not drawn)
  14	2	6	5	-1	0	6	-2
- CN(C(=O)COC(=O)C1CCN(S(=O)(=O)c2ccc(Cl)cc2)CC1)C1CCS(=O)(=O)C1 (stereo not drawn)
  .	.	4	7	-5	.	2	.
- C=CCNC(=O)CCc1nnc(C2(c3ccc(Cl)cc3)CCC2)o1
  4	3	2	1	-5	1	3	3
- Clc1ccc(SCc2csc(N3CCOCC3)n2)cc1
  11	-1	1	11	1	1	1	7
- CC/C(=N/NC(=O)c1ccccc1)c1ccc(OCCN2CCOCC2)cc1
  6	-2	-7	4	-4	-3	-1	-7
- O=S(=O)(/N=C(/Nc1nccs1)c1ccc(F)cc1)c1ccccc1
  .	.	-1	0	1	.	3	.
- O=C(Cc1ccccc1)N1CCN(C(=O)c2cccs2)CC1
  4	-1	3	1	0	0	-1	3
- COc1ccc(NC(=O)C(=O)NNC(=O)COc2ccc(Cl)cc2)c(OC)c1
  5	7	8	12	3	5	4	4
- O=S(=O)(c1ccc(Cl)cc1)N1CCN(c2ccccn2)CC1
  -1	-6	6	8	4	2	-1	10
- COc1ccc(CN2C(=O)c3ccccc3C(/C=N\OCc3ccc(C)cc3)C2=O)cc1 (stereo not drawn)
  -15	6	8	18	-8	-6	-4	-5
- Cc1ccc(S(=O)(=O)NNC(=S)Nc2ccc(Cl)cc2)cc1
  -1	-5	5	3	-2	-2	-7	-2
- Cc1ccc(-c2nn3c(C)nnc3s2)cc1NC(=O)CSc1ccc(Cl)cc1
  -10	0	-1	-2	7	0	4	-5
- CC(NC(=O)c1cccc(S(=O)(=O)N2CCN(C)CC2)c1)C1CC2CCC1C2 (stereo not drawn)
  5	4	0	-6	0	3	7	-1
- O=C(CSc1ccccc1C(=O)O)NCc1ccc(Cl)cc1
  2	0	9	4	-3	-1	2	1
- Cc1ccc(SCC(=O)OC(C)C(=O)NC2(C#N)CCCCC2)cc1 (stereo not drawn)
  -6	2	3	1	-1	-1	3	-3
- CC(C)(NS(=O)(=O)OCC(Cl)(Cl)Cl)c1ccccc1
  5	2	4	13	-2	-1	2	4
- CCC(NC(=O)COC(=O)C1CC2CCCC(C1)C2=O)c1ccc(Br)cc1 (stereo not drawn)
  2	5	22	7	1	2	2	6
- CCc1[nH]nc(C(=O)N2CCCC(Nc3ccc(C(C)C)cc3)C2)c1C (stereo not drawn)
  0	3	2	7	-4	-2	7	5
- Fc1ccc(Cn2c(SCc3ccc(F)c(F)c3)nnc2C(F)(F)F)cc1
  3	3	-1	7	0	1	7	1
- O=S(=O)(N=C(NS(=O)(=O)c1ccc(Cl)cc1)c1ccccc1)c1ccc(Cl)cc1
  .	.	0	10	-3	.	6	.
- Cc1ccc(SCC2=NN(c3nc(C)cc(C)n3)C(=O)C2)cc1
  37*	0	8	0	-3	0	15	3
- CCC(NC(=O)CSc1nnnn1C1CC1)c1ccc(Br)cc1 (stereo not drawn)
  .	.	-1	-1	-3	-2	-6	1
- CCc1ccc([C@@H]2CC=C(C(=O)O)[C@H](c3cccc(Cl)c3)N2S(=O)(=O)c2ccc(C)cc2)cc1
  -84	-5	-5	-2	-2	-8	9	-8
- Cc1ccccc1CSCC(=O)Nc1ccccc1Br
  0	-4	0	14	-2	-3	5	3
- O=c1cc(O)nc(SC23CC4CC(CC(C4)C2)C3)[nH]1
  5	-3	21	3	-8	-6	2	-1
- Cn1c(SCC(=O)Nc2ccc(C(N)=O)cc2)nnc1-c1cccs1
  4	-4	4	13	3	2	1	-2
- Cc1n[nH]c(=O)c2c(NC(=O)CSc3ccc(Br)cc3)oc(C)c12
  11	3	3	7	-4	-3	9	6
- Cc1ccc([C@H]2C(C(=O)O)=CC[C@@H](c3cccc(Cl)c3)N2S(=O)(=O)c2ccc(C)cc2)cc1
  .	.	4	7	.	.	.	.
- Cc1ccc(NC(=O)CS(=O)CC(=O)N(CC(=O)NC2CCCC2)c2cccc(C)c2C)cc1 (stereo not drawn)
  -4	-5	5	11	1	6	9	3
- NC(=S)NC1CC2CC1C1C=CCC21 (stereo not drawn)
  -6	2	6	3	-6	0	-3	-1
- CC(NC(=O)COC(=O)CCN1C(=O)C2CC=CCC2C1=O)c1ccc(Br)cc1 (stereo not drawn)
  .	.	9	6	2	4	5	3
- O=C(O)C1(c2ccccc2)CCN(S(=O)(=O)c2ccc(Cl)s2)CC1
  -1	1	0	7	-1	-2	3	0
- O=C(CCSc1ccccc1)OCn1nnc2ccccc2c1=O
  -8	-2	1	1	3	1	18	-3
- O=C1CCCC2=C1C(c1ccc(OS(=O)(=O)c3ccc(Cl)cc3)cc1)C1=C(CCCC1=O)O2
  6	2	-2	3	0	0	2	12
- CCOC(=O)c1[nH]c(C)c(CN(CCc2ccccc2)C(=O)CCC(=O)O)c1C
  8	-2	-2	3	2	0	2	-1
- CC12CC3CC(C)(C1)CC(C(=O)Nc1nn[nH]n1)(C3)C2
  15	7	-2	3	2	2	9	1

Full records, quoted from the list. Screens in order: GSTO1 counter	Fam108B inh	PAFAH2 inh	PAFAH1B3 FP inh	PAD4 inh	LYPLA1 counter	pPAFAH inh	PME-1 primary
Listed for CC(NC(=O)COC(=O)CCN1C(=O)C2CC=CCC2C1=O)c1ccc(Br)cc1 (stereo not drawn) : .	.	9	6	2	4	5	3
Listed for Cn1c(SCC(=O)Nc2ccc(C(N)=O)cc2)nnc1-c1cccs1 : 4	-4	4	13	3	2	1	-2

Continued:
Second line of a record: GSTO1 counter	Fam108B inh	PAFAH2 inh	PAFAH1B3 FP inh	PAD4 inh	LYPLA1 counter	pPAFAH inh	PME-1 primary
- O=C(CCNC(=O)C1CCN(S(=O)(=O)c2ccc(F)cc2)CC1)NCCc1cccc(F)c1
  -1	2	4	0	4	4	1	22
- N#Cc1c(-c2ccccc2)c(-c2ccccc2)nn(CC(=O)NNC(=O)Nc2ccccc2)c1=O
  0	-4	-7	10	-3	-4	0	5
- O=C(CSCc1ccccc1)N1CCN(S(=O)(=O)c2ccc(F)cc2)CC1
  -1	-2	11	6	1	0	1	1
- CC(C)(Oc1ccc(Cl)cc1)C(=O)OCc1nc2ccsc2c(=O)[nH]1
  4	-3	4	7	1	1	4	5
- CCn1cc(C(=O)N2CCCC2)c(=O)c2cc(S(=O)(=O)N3CCC(C)CC3)ccc21
  4	-3	0	3	-5	1	3	-3
- O=S(=O)(Nc1cccc(CCc2ccccn2)c1)c1ccc(Cl)cc1
  2	2	7	11	1	2	20	-1
- CC(=O)C(C(c1ccccc1)c1c[nH]c2ccccc12)[N+](=O)[O-] (stereo not drawn)
  -3	-7	14	11	-6	-2	6	-6
- O=c1[nH]c(NCCO)nc2c1C1(CCCCC1)Cc1ccccc1-2
  0	-1	2	4	-5	3	4	0
- COc1ccc(-c2nnc(NC(=O)c3cccs3)s2)c(OC)c1
  -7	-8	-3	7	-2	0	3	-5
- Cc1ccc([C@H]2C(C(=O)O)=CC[C@@H](c3ccc(C(C)C)cc3)N2S(=O)(=O)c2ccc(C)cc2)cc1
  .	.	11	5	9	.	9	.
- Cc1ccc(CCNC(=O)c2cc(C)nn2-c2ccccc2)cc1
  9	5	7	11	-1	1	9	0
- O=C(NCC1(c2ccccc2)CCCC1)c1ccco1
  0	1	3	0	-6	-2	-1	1
- O=C(CSc1ncn[nH]1)N1CCN(S(=O)(=O)c2ccc(Cl)cc2)CC1
  -3	0	8	6	3	-3	4	2
- N/C(=N\OC(=O)CCc1ccccc1)c1ccccc1Cl
  3	1	3	1	1	0	3	2
- Cc1ccc(CSCCNC(=O)CSCc2ccc([N+](=O)[O-])cc2)cc1
  -1	0	2	-4	-1	2	20	4
- O=C(/C=C/c1ccccc1)CC(O)(c1ccccc1)C(F)(F)C(F)F (stereo not drawn)
  0	-4	6	2	-1	-4	-3	-10
- CC1CC(C)CN(C(=O)C(C)N2CCN(S(=O)(=O)c3ccc(C(F)(F)F)cc3)CC2)C1 (stereo not drawn)
  .	.	-1	1	.	.	.	.
- O=C(COC(=O)C1(c2ccccc2)CCCC1)N1CCNC1=O
  .	.	4	1	-7	0	2	-1
- CC1Cc2ccccc2N1S(=O)(=O)c1cccc(C(=O)N2Cc3ccccc3CC2C(N)=O)c1 (stereo not drawn)
  .	.	8	3	-1	1	0	6
- O=C(COC(=O)CCSc1ccc(Cl)cc1)NCCc1ccccc1
  5	0	-6	9	-1	-2	16	-1
- N/C(=N\OC(=O)Cc1ccccc1)c1ccccc1Cl
  5	-2	9	19	-3	-2	6	0
- CC(C)C(=O)Nc1ncc(Cc2ccc(Cl)cc2)s1
  7	1	2	3	-5	-1	8	-1
- CCSc1n[nH]c2nc3c(c(=O)n12)C1(CCCC1)Cc1ccccc1-3
  -20	3	20	3	0	-1	-2	-5
- Cc1ccc2cc(CCNC(=O)CCCc3ccccc3)c(=O)[nH]c2c1C
  -6	3	7	10	0	3	-3	-2
- O=S(=O)(Nc1ccc2nc(N3CCOCC3)sc2c1)c1ccc(Cl)cc1
  .	.	9	14	-4	-2	-2	1
- Cc1c(C(=O)N2CCCCC2)c(S(=O)(=O)NCCc2ccc(Cl)cc2)c(C)n1C
  6	-2	-2	2	-2	-1	8	1
- Cc1cccc(OCC(=O)NS(=O)(=O)c2ccc(Br)cc2)c1
  5	-1	-6	2	-2	1	6	1
- c1ccc(C2(CNc3ccccn3)CCCC2)cc1
  9	6	7	3	-5	1	5	3
- O=C(COc1ccc2c(-c3ccccc3)cc(=O)oc2c1)N[C@H](Cc1c[nH]c2ccccc12)C(=O)O
  -6	1	-2	-5	6	0	-7	3
- Cc1ccc(SCCCCN2CCOCC2)cc1
  -5	-1	-12	15	-8	-1	-8	-9
- NS(=O)(=O)c1ccc(CNC(=O)C2(c3ccc(Cl)cc3)CC2)cc1
  5	-1	1	3	1	1	5	-4
- CC(C)c1ccc(NC(=O)CSC(C)c2nc3ccccc3c(=O)[nH]2)cc1 (stereo not drawn)
  0	-7	-2	5	6	0	-1	-1
- Cc1ccc(S(=O)(=O)N2[C@@H](c3ccccc3)C(C(=O)O)=CC[C@H]2c2ccc(Cl)cc2)cc1
  -172	-4	2	0	3	-5	0	-5
- COc1cc(OC)cc(N2C(=O)CSCC2=O)c1
  2	2	0	9	-1	-2	-4	4

Bioassay records from PubChem.

An excerpt; the hit share may differ from the screen's.
